D2 ag: agonists of human D2 dopamine receptor (beta-arrestin). P14416. DiscoveRx PathHunter D2 beta-arrestin, luminescence, 90 min; 100% = 57 uM dopamine signal. activation, % (test concentration not listed). actives 0.084% (n = 360,000). AID 624465; in the data active = activation above about 40%; inconclusive = about 15% to 40%; inactive = below about 15%; also: compound concentration not given in the record; the text of the record calls up to 30% inactive
Target sequence (P14416 whole entry, looked up): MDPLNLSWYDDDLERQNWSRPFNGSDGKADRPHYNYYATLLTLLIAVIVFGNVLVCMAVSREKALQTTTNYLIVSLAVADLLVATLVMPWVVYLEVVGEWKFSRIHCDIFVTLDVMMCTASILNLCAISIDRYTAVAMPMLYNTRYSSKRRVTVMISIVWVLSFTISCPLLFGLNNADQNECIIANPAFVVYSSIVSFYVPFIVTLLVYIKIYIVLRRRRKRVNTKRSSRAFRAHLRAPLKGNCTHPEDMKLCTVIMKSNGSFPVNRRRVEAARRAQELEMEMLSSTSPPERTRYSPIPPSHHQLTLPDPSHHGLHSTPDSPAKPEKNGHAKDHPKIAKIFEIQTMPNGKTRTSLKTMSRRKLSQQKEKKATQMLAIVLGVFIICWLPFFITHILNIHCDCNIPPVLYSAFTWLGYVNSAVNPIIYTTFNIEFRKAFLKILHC
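DiscoveRx PathHunter D2 beta-arrestin cells (2,100/well) attached overnight, then compound-stimulated 90 min at 37 C in HBSS/10 mM HEPES/0.1% Tween-20 buffer; beta-galactosidase complementation read by luminescence after 1 h at ambient temperature. Dopamine 57 uM final (EC100) as control.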
TRPV1 PAM: enhances activation of the human vanilloid receptor TRPV1. potentiation, % at 8.33 µM. actives 0.02% (n = 320,000). AID 540277. TRPV1-expressing cells, Fluo-8 calcium influx, capsaicin EC20 potentiation; host cell line not named in the record; control for the full effect not named in the record. Q8NER1; active means potentiation above 80%; inconclusive means 30% to 80%; inactive means below 30%; also: 0% is about no effect
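Fluo-8 calcium influx in TRPV1-expressing cells, kinetic read (ex 480/em 520 nm). Compound added and read 3 min for agonist activity, followed by capsaicin at EC20 final and 2 min further read for enhancement.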
Sfp PPTase inh: blocks B. subtilis Sfp PPTase activity; Biochemical Sfp PPTase activity, qHTS; Potency, µM, for the others: max response, negative = inhibition, hits mostly inhibitors; Q9F4F7; actives 3.5% (n = 310,000); active = well fitted inhibition curve with a large enough effect; inconclusive = small, poorly fitted or top-dose-only effect, or another doubt; inactive = no such curve, though single readings can be large or run the other way;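 also: the enzyme is Sfp with the accession as filed and its product quenches rhodamine fluorescence; potency is read from the fitted curve at half-maximal effect; 0% = enzyme reaction without inhibitor and -100% = no enzyme wells; top concentration of the series not given in the record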
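Sfp 15 nM + cpd, 15 min RT; start w/ rhodamine-CoA 5 uM, BHQ-2-YbbR 12.5 uM (final); 50 mM Hepes pH 7.6, 10 mM MgCl2, 0.01% NP-40, 0.01% BSA; read 525/598 nm at 0 and 30 min.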
CtBP-E1A inh: blocks the CtBP interaction with E1A; activity change, % (concentration not given with the values); actives 0.49% (n = 340,000); AID 651724; AlphaScreen GST-E1A/His-CtBP binding, 1536-well; stronger effect = lower value; control for the full effect not named in the record; in the data active means activity change below about -65%; inconclusive means about -30% to -65%; inactive means above about -30%; also: % is scaled to controls: 0 for no effect and ±100 for the full control effect
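Steps: dispense buffer (Tris pH 8.0, NaCl 300 mM, TCEP 1 mM, BSA, Tween 20); add 5X protein mix (GST-E1A, His-CtBP, 125 nM each); pin 23 nL compound; 2 h at 37 °C, dark; add 5X beads (50 ug/mL); 1 h; read.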
D2 potentiator: human D2 receptor positive allosteric modulation | potentiation, % (concentration not given with the values) | P14416 | DiscoveRx D2 beta-arrestin cells, luminescence, 90 min; 100% = 57 uM dopamine signal | actives 0.23% (n = 360,000); active = potentiation of 50% or more; inconclusive = 30% to 50%; inactive = 30% or less;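 also: compound concentration not given in the record; tested on top of an EC20 dose of dopamine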
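PathHunter beta-arrestin assay in DiscoveRx D2 cells. Compounds were added with an EC20 of dopamine (50 nM final) for 90 min at 37 deg C. Luminescence was read 1 h after detection reagent, with 57 uM dopamine as the EC100 control.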
Six1-Eya2 inh: Six1/Eya2 interaction inhibition. Q15475+O00167. AlphaScreen GST-Six1/His-Eya2 binding, biochemical; stronger effect = lower value; control for the full effect not named in the record. activity change, % (concentration not given with the values). actives 0.56% (n = 360,000). AID 651725; in the data active = activity change below about -65%; inconclusive = about -30% to -65%; inactive = above about -30%; also: % is scaled to controls: 0 for no effect and ±100 for the full control effect
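AlphaScreen luminescence read after one hour at 37 °C in darkness. Pin-transferred compounds met GST-Six1 and His-Eya2 protein (5X stock 250 nM/500 nM) plus glutathione donor and Ni-chelate acceptor beads (5X, 50 ug/mL).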
PINK1 modulator: modulators of PINK1 expression. PINK1 immunofluorescence, high-content cytometry, 24 h. Potency, µM (highest dose often 76.6 µM), for the others: top-dose activation (PINK1 increase), actives largely listed as activators. actives 0.2% (n = 410,000). AID 624263; active = well fitted activation curve with a large enough effect; inconclusive = small, poorly fitted or top-dose-only effect; inactive = flat fitted curve, though single readings scatter; cell line not stated here;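 also: potency is read from the fitted curve at half-maximal effect; % of control where 0% means no effect; nearly all actives have a fitted effect of over 65% in size; a mitochondrial uncoupler was the plate control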
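PINK1 protein, normally rapidly degraded, was detected by immunofluorescence after 24 hour compound treatment of a stable cell line. Titration data (5 concentrations) came from laser-scanning cytometry, with CCCP-treated wells as controls.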
An asterisk follows results filed as active; ? = inconclusive; . = no result given; [ ] = another dose, or the depositor's remark. This is a random part of the collection. Share with any hit: about 3.7%.

Each structure is followed by: D2 ag	TRPV1 PAM	Sfp PPTase inh	CtBP-E1A inh	D2 potentiator	Six1-Eya2 inh	PINK1 modulator
- CCOC(=O)C1CCN(S(=O)(=O)c2c(C)[nH]c(C)c2C(=O)N2CCCC2)CC1
→ -1.6	-4	17%	5	-9	1	-0.8%
- CC(CCc1ccccc1)NC(=O)COC(=O)c1cccn1C (stereo not drawn)
→ -7.2	-9	.	0	-3	-1	-0.9%
- CCn1c(=O)n(CC)c2cc(S(N)(=O)=O)c(C)cc21
→ -1.1	4	0%	5	-7	0	0.1%[38.3 µM]
- COC(=O)c1c(NC(=O)CN2CCC3(O)CCCCC3C2c2cc(OC)ccc2OC)sc(C)c1C (stereo not drawn)
→ -4.5	-10	-10%	-14	-11	-9	2.6%
- O=C(CN1C(=O)c2ccccc2S1(=O)=O)Nc1ccccc1C(=O)NCc1ccco1
→ -1.4	3	13%	-4	-7	-15	0.1%
- O=C(OCC(=O)N1CCCc2ccccc21)c1ccc(C(F)(F)F)cc1
→ -4.7	5	.	3	6	14	2.5%
- O=C(CCC1CCCC1)NCc1ccccn1
→ -2.1	-15	7%	-5	-18	5	-1.2%
- CCOC(=O)c1ccc(N/C(=N/S(=O)(=O)c2ccccc2)c2ccccc2)cc1
→ -4.1	-1	3%	?	-35	-28	-0.4%
- CCOc1ccc2nc(SCC(=O)Nc3cc4c(cc3C(C)=O)OCO4)[nH]c2c1
→ -2.8	-5	-7%	-5	-2	-11	0.4%
- CCOC(=O)N1C2C=CC(C2)N1C(=O)OCC
→ -2.3	.	.	6	0	-9	0.7%
- COc1ccc(C(=O)c2c(C(F)(F)F)oc3c2C(=O)c2ccccc2C3=O)cc1OC
→ ?	4	-6%	?	?	?	-1.3%
- CC1(C)C(=O)C=C(N2CCCCC2)c2ccccc21
→ -4.9	.	.	5	-11	41	14%
- Cn1c(=O)c2c(ncn2CC(=O)N2CCN(c3ccccc3F)CC2)n(C)c1=O
→ -0.4	0	7%	11	-4	9	.
- Cc1ccc2nc3c(c(Nc4ccccc4)c2c1)CCC3
→ -5.0	-7	-6%	-1	-20	-3	?
- COc1ccc(COCC(O)CN2CCCCC2)cc1OC (stereo not drawn)
→ -2.0	6	6%	.	-7	4	0.0%
- CN1C(=O)C(C)(C)c2cc(S(=O)(=O)N3CCCC3C(=O)NCc3ccc(F)cc3)ccc21 (stereo not drawn)
→ -5.4	-18	20%	6	0	9	-0.4%
- Cc1cccc(NC(=O)CSc2cn[nH]n2)c1
→ 3.0	3	17%	4	1	1	0.0%
- CCNc1nc(NC(C)C)nc(N(n2cnnc2)S(=O)(=O)c2ccc(C)cc2)n1
→ -4.8	7	6%	0	-8	11	1.9%
- N#Cc1ccc2c(c1)nc1ccccn12
→ 9.1	2	4%	-1	4	5	-0.3%
- COc1ccccc1NC(=O)CN1CCN(c2ccc(Cl)cc2)CC1
→ -0.7	.	-10%	-4	-24	-8	1.7%

Sorted by value in D2 ag (descending): some entries from above.
mol | D2 ag
Cn1c(=O)c2c(ncn2CC(=O)N2CCN(c3ccccc3F)CC2)n(C)c1=O | -0.4
CCNc1nc(NC(C)C)nc(N(n2cnnc2)S(=O)(=O)c2ccc(C)cc2)n1 | -4.8
Cc1ccc2nc3c(c(Nc4ccccc4)c2c1)CCC3 | -5.0

Whole records, quoted from the list. Screens in order: D2 ag | TRPV1 PAM | Sfp PPTase inh | CtBP-E1A inh | D2 potentiator | Six1-Eya2 inh | PINK1 modulator
Cn1c(=O)c2c(ncn2CC(=O)N2CCN(c3ccccc3F)CC2)n(C)c1=O is entered as -0.4 | 0 | 7% | 11 | -4 | 9 | .
COc1ccc(C(=O)c2c(C(F)(F)F)oc3c2C(=O)c2ccccc2C3=O)cc1OC is entered as ? | 4 | -6% | ? | ? | ? | -1.3%

More records follow:
Each structure is followed by: D2 ag	TRPV1 PAM	Sfp PPTase inh	CtBP-E1A inh	D2 potentiator	Six1-Eya2 inh	PINK1 modulator
- Cc1ccc(-c2nc3ccccc3o2)cc1NC(=O)c1ccc2c(c1)OCO2
→ -0.6	-9	-18%	5	1	1	5.3%
- COc1cccc2sc3ccc(C#Cc4ccc(N)cc4)cc3c(=O)c12
→ 0.0	8	-29%	3	-13	-9	4.0%
- CC(=O)Oc1ccccc1N(C(C)=O)S(=O)(=O)c1cccc([N+](=O)[O-])c1
→ -21	1	5%	3	1	-1	1.3%
- Cc1c(C(=O)OCCOC(C)C)[nH]c2c1C(=O)CC(C)(C)C2
→ 2.7	-8	15%	2	2	0	2.4%
- CN(C)CCCN(C(=O)CCOc1ccccc1)c1nc2ccc(F)cc2s1
→ -7.7	-16	-21%	.	-41	3	-1.8%
- COC(=O)c1cc(C(=O)N2CCN(c3cccc(C)c3C)CC2)cc([N+](=O)[O-])c1
→ 0.4	1	1%	-14	3	-14	2.8%
- O=C(CCC(=O)N1CCCc2ccccc21)N1CCN(S(=O)(=O)c2ccccc2)CC1
→ -1.9	2	12%	-2	-13	-9	-3.0%
- Cc1ccc(CN2CC(C(=O)N3CC=C(c4ccccc4)CC3)CC2=O)cc1 (stereo not drawn)
→ 3.0	-14	19%	4	2	-4	0.1%
- N/C(=N\OC(=O)Cc1ccccc1[N+](=O)[O-])c1ccc(Br)cc1
→ -0.9	12	-1%	-6	19	-2	6.8%
- N#CCCCCn1ccc(NC(=O)c2ccc(Cl)cc2O)n1
→ -5.5	.	.	-15	-5	-9	1.2%
- COc1ccc(NC(=O)N2CCc3cc(OC)c(OC)cc3C2)cc1
→ -0.6	2	3%	-13	2	2	11%
- C=CCN(C(=O)c1csnn1)C(C(=O)NC1CCCC1)c1ccc(Cl)cc1 (stereo not drawn)
→ -8.2	1	11%	-3	-7	-18	5.6%
- CCC(Cc1ccccc1)NS(=O)(=O)c1ccc2c(c1)NC(=O)CS2 (stereo not drawn)
→ 2.7	-5	6%	2	3	1	0.5%
- O=C(Nc1cccc(-n2cccn2)c1)C1CCCN(Cc2ccccc2F)C1 (stereo not drawn)
→ 1.2	8	2%	-1	-23	2	2.4%
- O=C(OCC(=O)N1CCc2ccccc2C1)c1ccc(N2CCOCC2)c([N+](=O)[O-])c1
→ -8.2	-8	1%	-5	-12	-12	1.3%
- Brc1ccccc1Cn1c(-c2cncs2)nc2ccccc21
→ 4.2	-18	8%	-14	-3	1	5.4%
- Cc1onc(-c2c(Cl)cccc2Cl)c1C(=O)N=C(N)N1CCCC1
→ -5.8	-6	8%	12	-5	-20	0.0%
- CCOC(=O)C(NC(=O)c1ccccc1Cl)(Nc1sc2c(c1C(N)=O)CCC2)C(F)(F)F (stereo not drawn)
→ -13	3	?	.	-12	1	0.5%
- CC(NC(=O)C1CCCC1)c1ccccc1 (stereo not drawn)
→ 0.6	.	.	9	3	-2	1.1%
- COc1ccc(NC(=O)Nc2ccccc2SC)cc1
→ -5.3	-25	-10%	-2	-14	1	-1.6%
- COc1ccc(CN2C(=O)C(CC(=O)NCCc3ccccn3)CC(C(=O)N(C)C)=C2C)cc1 (stereo not drawn)
→ -0.7	.	.	1	.	1	0.7%
- CC1CCC(NC(=O)CSc2nnc(-c3cccnc3)o2)CC1 (stereo not drawn)
→ -0.6	-4	.	6	-19	3	1.6%
- CC(=O)Nc1ccc(N2C(=O)CSC2c2ccc([N+](=O)[O-])cc2)cc1 (stereo not drawn)
→ -2.0	6	10%	4	9	5	0.5%
- CCC(C)[C@H](NC(=O)[C@@H]1Cc2ccccc2CN1C(=O)OC(C)(C)C)C(=O)NCC1CCC(C(=O)O)CC1 (stereo partly drawn)
→ -1.1	-8	8%	-2	-2	4	0.5%
- Cc1cc(C(=O)Nc2ccc3c(c2)OCCO3)c(C)o1
→ -2.9	7	16%	-10	-6	-9	1.3%
- O=C(O)c1ccccc1OCCOc1ccccc1
→ 0.4	-3	32%[activator]	-2	2	4	1.6%
- COc1ccc(/C=C(\NC(=O)c2ccco2)C(=O)NCCc2nc3ccccc3[nH]2)cc1
→ 0.1	4	9%	.	-5	-1	-0.8%
- COC(=O)c1cn(Cc2cc(OC)ccc2OC)cc(F)c1=O
→ 1.0	27	7%	7	-2	4	0.6%
- CCC1(CC)Cc2ccccc2C2=C(C(=O)N3CCCCC3)C(=O)C(=O)N21
→ -4.0	4	-5%	.	-3	-3	-0.3%
- COC(=O)c1ccc(-c2ccc([C@H]3[C@H]4C=CC[C@@H](C)[C@@H]4C(=O)N3Cc3ccccc3)c(F)c2)cc1
→ -5.3	-19	?	-2	-11	-5	0.9%
- Nc1ccc(N2CCCCC2)cc1N1CCCCC1
→ 4.1	-10	32µM*	?	-10	?	16µM*
- O=c1cc(NCc2ccccc2)nc2ccccn12
→ -2.8	7	20%	8	0	6	7.1%
- COc1cc(/C=C2/C(=O)NN(c3ccc(F)cc3)C2=O)cc([N+](=O)[O-])c1O
→ ?	-4	-5%	-3	2	-14	2.5%

As entered above:
CCOC(=O)C1CCN(S(=O)(=O)c2c(C)[nH]c(C)c2C(=O)N2CCCC2)CC1 in TRPV1 PAM → -4
CCOC(=O)N1C2C=CC(C2)N1C(=O)OCC in D2 potentiator → 0
CC(=O)Oc1ccccc1N(C(C)=O)S(=O)(=O)c1cccc([N+](=O)[O-])c1 in PINK1 modulator → 1.3%
CC(NC(=O)C1CCCC1)c1ccccc1 (stereo not drawn) in D2 ag → 0.6
CCC(Cc1ccccc1)NS(=O)(=O)c1ccc2c(c1)NC(=O)CS2 (stereo not drawn) in Sfp PPTase inh → 6%
CCn1c(=O)n(CC)c2cc(S(N)(=O)=O)c(C)cc21 in D2 ag → -1.1

Assay outcomes (PubChem BioAssay)
